Compound activity (PubChem)
2A firefly: FMDV 2A StopGo reporter, firefly signal | 0.23% of 120,000 active | Potency, µM (top dose mostly 57.5 µM), for the others: top-dose signal change, negative = less light | HEK cells with a luciferase reporter of 2A StopGo recoding; active = well fitted falling curve with a large enough effect; inconclusive = small, poorly fitted or top-dose-only effect; inactive = no such curve, though single readings can be large or run the other way; note: nearly all actives have a fitted effect of over 60% in size; overnight with compound
StopGo RLuc: FMDV 2A StopGo reporter, Renilla signal | 0.32% of 120,000 active | HEK cells with a luciferase reporter of 2A StopGo recoding | Potency, µM (titrated, usually from 57.5 µM), for the others: at the highest dose signal change, negative = less light; active means well fitted falling curve with a large enough effect; inconclusive means small, poorly fitted or top-dose-only effect; inactive means no such curve, though single readings can be large or run the other way; note: nearly all actives have a fitted effect of over 55% in size; overnight with compound
The depositor's hits bear a star; [ ] = dose if it differs, or a comment. % is set by controls: 0 for no effect and ±100 for the full control effect; potency is the fitted concentration of half-maximal effect.

Results for CCOc1ccc(CNC(=O)Cn2ncc3c(=O)oc4ccc(C)cc4c32)cc1 ?
2A firefly: 17%; StopGo RLuc: 5%

How did Cc1cc(NS(=O)(=O)c2ccc(NC(=O)c3oc4ccccc4c3C)cc2)nc(C)n1 do in these assays?
2A firefly: 34%[activator]; StopGo RLuc: 175%[activator]

What do the screens show for `Cc1cccc(N(C)C(=O)COC(=O)c2ccc(F)cc2)c1`?
2A firefly: 2%; StopGo RLuc: -5%

What do the screens show for `O=S(=O)(NCCO)c1ccc(Oc2ccc(S(=O)(=O)NCCO)cc2)cc1`?
2A firefly: 5%; StopGo RLuc: 3%

What do the screens show for `COc1ccc2c(c1OC)C(=O)OC2CC(=O)c1ccc(F)cc1` (stereo not drawn)?
2A firefly: -1%; StopGo RLuc: -20%

Results for S=c1[nH]c(-c2ccccc2)cs1 ?
2A firefly: 55%[activator]; StopGo RLuc: 1%

Results for CCOc1ccc(-c2nc(C#N)c(N3CCC(C)CC3)o2)cc1 ?
2A firefly: 24%; StopGo RLuc: 0%

How did CCc1nc2n(n1)C1(CCCCC1)[C@@H]1CCCC[C@@H]1N2C(=O)CC(C)C do in these assays?
2A firefly: 11%; StopGo RLuc: 3%

What do the screens show for `COCCCNC(=O)c1ccc(NC(=O)c2nsc3ccccc23)cc1`?
2A firefly: 55%[activator]; StopGo RLuc: -13%

Results for Cc1ccc(-c2nc3ccccn3c2Nc2ccc3c(c2)OCO3)cc1 ?
2A firefly: 29%; StopGo RLuc: -7%

How did CCCc1nnc(NC(=O)c2nc(SCC)ncc2Cl)s1 do in these assays?
2A firefly: 12%; StopGo RLuc: 34%[activator]

What do the screens show for `Cc1cccc(NC(=O)c2ccc(COc3ccccc3)cc2)c1`?
2A firefly: 6%; StopGo RLuc: -9%

Results for CC1(C)OC2OC(C(=O)Oc3ccc(Br)cc3)C3OC(C)(C)OC3C2O1 (stereo not drawn) ?
2A firefly: 10%; StopGo RLuc: 7%

How did C=CCNCc1ccccc1F do in these assays?
2A firefly: -5%; StopGo RLuc: 0%

What do the screens show for `Cc1ccc(S(=O)(=O)NCCc2nnc3ccc(SCc4cccc(F)c4)nn23)cc1`?
2A firefly: -14%; StopGo RLuc: 77%[activator]

How did NC(=O)C1CCN(Cc2nc(N)c3ccccc3n2)CC1 do in these assays?
2A firefly: 0%; StopGo RLuc: -18%

How did Cc1ccccc1C(=O)NCCc1csc(-c2ccc(C(F)(F)F)cc2)n1 do in these assays?
2A firefly: -17%; StopGo RLuc: -16%

How did COc1ccc(CN(Cc2ccco2)C(=O)COc2ccc(Cl)cc2C)cc1 do in these assays?
2A firefly: -4%; StopGo RLuc: 10%

What do the screens show for `Cc1ccc(Nc2c(-c3ccc(C)o3)nc3cccc(C)n23)cc1`?
2A firefly: 76%[activator]; StopGo RLuc: 5%

Results for C=CCn1c(C(=O)NCCCOCC)cc2cc(S(=O)(=O)N(C)C)ccc21 ?
2A firefly: 8%; StopGo RLuc: 1%

What do the screens show for `COc1ccc(N2CCN(C(=O)c3ccc4c(=O)n(CCc5ccc(OC)c(OC)c5)c(=O)[nH]c4c3)CC2)cc1`?
2A firefly: 9%; StopGo RLuc: -7%

How did Clc1ccccc1-n1ncc2c(NC3CCCC3)ncnc21 do in these assays?
2A firefly: 68%[activator]; StopGo RLuc: -6%

Results for Cc1ccc(C)c(NC(=O)c2csc3c2CCCC3)c1 ?
2A firefly: 114%[activator]; StopGo RLuc: 8%

Results for CCOc1ccc2oc(=O)cc(CN3CCN(CC(=O)Nc4ccc(C)c(F)c4)CC3)c2c1 ?
2A firefly: -9%; StopGo RLuc: -1%

Results for CCOc1ccc(NC(=O)c2c(NCc3ccc(C)o3)sc3c2CCC(C)C3)cc1 (stereo not drawn) ?
2A firefly: -7%; StopGo RLuc: inconclusive

How did CCc1ccc(NC(=O)c2cc(=O)c3ccc(C)cc3o2)cc1 do in these assays?
2A firefly: 16%; StopGo RLuc: -1%

Results for CCN(CC(=O)NC(C)(C)C)C(=O)CSc1nc2ccccc2o1 ?
2A firefly: -3%; StopGo RLuc: 4%

Results for CC(C)OC(=O)COc1ccc2cc(-c3ccccc3)c(=O)oc2c1 ?
2A firefly: 7%; StopGo RLuc: 5%

Results for CC(=O)NC1[C@@H]2CC3C[C@H]1CC(O)(C3)C2 (stereo partly drawn) ?
2A firefly: 0%; StopGo RLuc: 2%

What do the screens show for `CC(On1nnc2ccc(Cl)cc21)C(=O)Nc1ccccc1F` (stereo not drawn)?
2A firefly: -2%; StopGo RLuc: -11%

How did Clc1ccc(-c2nc(N3CCOCC3)nc3ccccc23)cc1 do in these assays?
2A firefly: 0%; StopGo RLuc: -5%

What do the screens show for `COC(=O)c1ccc(Cl)cc1NC(=O)NC(C)c1c(-n2cccc2)sc(C)c1C` (stereo not drawn)?
2A firefly: 24%; StopGo RLuc: 0%

What do the screens show for `CCN(CC)S(=O)(=O)c1ccc(-c2nc(C#N)c(N3CCCCC3)o2)cc1`?
2A firefly: 18%; StopGo RLuc: 35%[activator]

What do the screens show for `CCCn1nc(C)cc1CN(C)c1ccc(NS(=O)(=O)CC)cc1C(=O)O`?
2A firefly: inconclusive; StopGo RLuc: -8%

Results for CC(C)CC(=O)c1sc(Nc2ccccc2)nc1N ?
2A firefly: 235%[activator]; StopGo RLuc: 45%[activator]

What do the screens show for `Cc1ccc(S(=O)(=O)Cc2nc(-c3ccc(C(=O)NCCN4CCOCC4)cc3)oc2C)cc1`?
2A firefly: -5%; StopGo RLuc: 3%

How did CCOC(=O)CCCN1C(=O)CCn2nc(-c3cn(C)c4ccccc34)cc21 do in these assays?
2A firefly: 1%; StopGo RLuc: 3%

Results for COc1ccc(N2Cc3cccc(C(=O)Nc4ccc(C(C)C)cc4)c3C2=O)cc1 ?
2A firefly: 40%[activator]; StopGo RLuc: -19%

How did CCCC(=O)Nc1nnc(Cc2c[nH]c3ccccc23)s1 do in these assays?
2A firefly: -2%; StopGo RLuc: -23%

What do the screens show for `c1nc(Sc2ccc3c(c2)OCCCO3)c2c3c(sc2n1)CCCC3`?
2A firefly: 0%; StopGo RLuc: -3%[1.06 µM]

What do the screens show for `Cc1ccc(N)c(OCc2ccccc2)c1`?
2A firefly: 0%; StopGo RLuc: 9%

Results for Cc1cn2c(=O)cc(COC(=O)c3ccc(NC(=O)COc4ccccc4F)cc3)nc2s1 ?
2A firefly: -5%; StopGo RLuc: -1%

Results for Cn1c(=O)c2c(nc(SCC(=O)N3CCOCC3)n2C)n(C)c1=O ?
2A firefly: -16%; StopGo RLuc: -18%

What do the screens show for `Cc1ccc(C2c3[nH]c4ccccc4c3CCN2C(=O)c2ccc(N(C)C)cc2)cc1` (stereo not drawn)?
2A firefly: inconclusive; StopGo RLuc: -20%

How did O=C(CSc1nc(=O)n(Cc2ccncc2)c2c1CCC2)N1CCCCC1 do in these assays?
2A firefly: 1%; StopGo RLuc: -3%

What do the screens show for `COc1ccc(CCC(=O)NC2CC(=O)N(c3ccccc3)C2)cc1` (stereo not drawn)?
2A firefly: -2%; StopGo RLuc: 13%

Results for CC(C)(C)OC(=O)N1CCC(c2c(C(=O)NCc3cccs3)cnn2-c2cccc(F)c2)CC1 ?
2A firefly: -9%; StopGo RLuc: 4%

Results for NS(=O)(=O)c1ccc(CCNC(=O)COc2ccc3ccc(=O)oc3c2)cc1 ?
2A firefly: 8%; StopGo RLuc: -2%

How did Cc1cccc(C(C)C)c1NC(=O)C(C)OC(=O)Cc1n[nH]c(=O)c2ccccc12 (stereo not drawn) do in these assays?
2A firefly: -4%; StopGo RLuc: -8%

Results for Cn1c(NCc2ccco2)nc2c1c(=O)n(Cc1cccc(Br)c1)c(=O)n2C ?
2A firefly: 14%; StopGo RLuc: 14%

How did O=C(NCCc1ccc(Cl)cc1)c1ccncc1 do in these assays?
2A firefly: 42%[activator]; StopGo RLuc: -17%

How did CSc1nc(Cl)cc(Sc2ccc(C)cc2)n1 do in these assays?
2A firefly: 10%; StopGo RLuc: 25%

How did CCOc1ccc2oc(=O)cc(CN3CCN(C(=O)c4ccc(F)cc4)CC3)c2c1 do in these assays?
2A firefly: -17%; StopGo RLuc: 3%

Results for COc1cccc(Nc2nc(-c3cc4cc(OC)ccc4oc3=O)cs2)c1 ?
2A firefly: 42%[activator]; StopGo RLuc: 18%

How did CCOc1ccccc1C(=O)OCc1ccc(C#N)cc1 do in these assays?
2A firefly: 0%; StopGo RLuc: 1%

Results for CCc1ccccc1NC(=O)Cn1cc(C(=O)c2ccc(Cl)cc2)c(=O)c2ccc(C)nc21 ?
2A firefly: -14%; StopGo RLuc: -13%

Results for CN(CCOc1cccc(Cl)c1)Cc1nc(N)nc(N)n1 ?
2A firefly: -2%; StopGo RLuc: -9%

How did COc1cc(C#N)ccc1OCc1cccc(COc2ccc(C#N)cc2OC)c1 do in these assays?
2A firefly: 46%[activator]; StopGo RLuc: -11%

What do the screens show for `O=C(Cc1ccc(F)cc1)N(Cc1ccc(C(F)(F)F)cc1)C1CC1`?
2A firefly: inconclusive; StopGo RLuc: inconclusive

What do the screens show for `CCc1nc2nc(C)cc(Nc3cc(Cl)ccc3C)n2n1`?
2A firefly: -3%; StopGo RLuc: -7%

Results for N=C(N)Cc1ccccc1 ?
2A firefly: inconclusive; StopGo RLuc: inconclusive

What do the screens show for `CN(C)C(=O)COC(=O)c1csc(NCc2ccccc2)n1`?
2A firefly: -2%; StopGo RLuc: -8%

Results for Cc1cc(N2CCN(C(C(=O)O)c3c[nH]c4ccc(CO)cc34)CC2)nc2ccccc12 (stereo not drawn) ?
2A firefly: -6%; StopGo RLuc: -11%

What do the screens show for `CCC(C)NC(=O)c1ccc(Cl)cc1-n1cnnn1` (stereo not drawn)?
2A firefly: 14%; StopGo RLuc: 6%

How did COc1cccc(-n2nnc3c(sc4nc(C)cc(C)c43)c2=O)c1 do in these assays?
2A firefly: 30%[activator]; StopGo RLuc: -12%

What do the screens show for `CC(=O)c1cccc(NC(=O)c2nc(-c3ccccc3)n(-c3cccc(C)c3)n2)c1`?
2A firefly: -19%; StopGo RLuc: -6%

Results for N#CCOC(=O)c1c[nH]c2ccccc12 ?
2A firefly: 21%; StopGo RLuc: 7%

What do the screens show for `COc1ccc(CNC(=O)c2cccc(NC(=O)N3CCSc4ncccc43)c2)cc1`?
2A firefly: 9%; StopGo RLuc: -9%

Results for NC(=O)CCN(Cc1ccccc1)C(=O)NCC(F)(F)F ?
2A firefly: -10%; StopGo RLuc: -2%

What do the screens show for `CCOc1ccc(NC(=O)C2CC(=O)NC(Nc3ccc(OCC)cc3)=N2)cc1` (stereo not drawn)?
2A firefly: 6%; StopGo RLuc: 1%

How did COc1ccc2oc(=O)cc(-c3cc4cccc(OC)c4o3)c2c1 do in these assays?
2A firefly: 5%; StopGo RLuc: 14%

How did O=Cc1ccc(-c2ccc(I)cc2Cl)o1 do in these assays?
2A firefly: 0%; StopGo RLuc: -26%

Results for O=C(Cc1ccsc1)Nc1cc(F)ccc1F ?
2A firefly: 25%; StopGo RLuc: 0%

Results for CCCNC(=O)C(C)NC(=O)COc1ccccc1NC(C)=O (stereo not drawn) ?
2A firefly: 11%; StopGo RLuc: -7%

What do the screens show for `COc1ccc(NC(=O)c2ccc3c(=O)n4nc(Nc5ccccc5C)sc4nc3c2)cc1`?
2A firefly: -7%; StopGo RLuc: -9%

What do the screens show for `Cc1cccc(-c2nc(SCc3noc(CCC(=O)Nc4ccc5ccccc5c4)n3)n[nH]2)c1`?
2A firefly: 0%; StopGo RLuc: 8%

How did N#Cc1c(NC(=O)c2nn(-c3ccccc3)c(=O)c3ccccc23)sc2c1CCCC2 do in these assays?
2A firefly: -4%; StopGo RLuc: 1%

How did Cc1ccc(NC(=O)c2cc3c(cc2C)OCCCO3)cc1 do in these assays?
2A firefly: 183%[activator]; StopGo RLuc: 8%

What do the screens show for `Cc1ccc(/C=C/c2nc(N)nc(-c3ccccc3O)n2)cc1`?
2A firefly: 10%; StopGo RLuc: -1%

Results for CC(=O)c1c(C)[nH]c(C(=O)CSc2cc(Cl)ccc2Cl)c1C ?
2A firefly: 1%; StopGo RLuc: 102%[activator]

Some of these compounds in order of SMILES length, largest number first.
Results for Cc1cc(N2CCN(C(C(=O)O)c3c[nH]c4ccc(CO)cc34)CC2)nc2ccccc12 (stereo not drawn) ?
2A firefly: -6%; StopGo RLuc: -11%

What do the screens show for `COc1ccc(NC(=O)c2ccc3c(=O)n4nc(Nc5ccccc5C)sc4nc3c2)cc1`?
2A firefly: -7%; StopGo RLuc: -9%

What do the screens show for `CCOc1ccc(NC(=O)C2CC(=O)NC(Nc3ccc(OCC)cc3)=N2)cc1` (stereo not drawn)?
2A firefly: 6%; StopGo RLuc: 1%

Results for NC(=O)CCN(Cc1ccccc1)C(=O)NCC(F)(F)F ?
2A firefly: -10%; StopGo RLuc: -2%

Results for N=C(N)Cc1ccccc1 ?
2A firefly: inconclusive; StopGo RLuc: inconclusive

Continuation:
What do the screens show for `CCc1cccc(CC)c1NC(=O)c1ccccc1SC`?
2A firefly: 5%; StopGo RLuc: 13%

Results for O=C(CCc1c[nH]c2ccccc12)NC1CCC(c2ccccc2)CC1 (stereo not drawn) ?
2A firefly: -14%; StopGo RLuc: -19%

What do the screens show for `CCn1ccc2cc(NC(=O)c3nn(Cc4ccccc4)c(=O)c4ccccc34)ccc21`?
2A firefly: 21%; StopGo RLuc: -11%

How did COc1cc2nc(NC(=O)c3ccc(S(=O)(=O)N4CCOCC4)cc3)sc2cc1OC do in these assays?
2A firefly: 1%; StopGo RLuc: -10%

Results for N#Cc1nc(COc2ccc(Br)cc2)oc1N1CCC(C(N)=O)CC1 ?
2A firefly: 51%[activator]; StopGo RLuc: 77%[activator]

How did C=CCNc1nc(-c2c(C(=O)OC)c(C)n(C(C)C)c2C)cs1 do in these assays?
2A firefly: 2%; StopGo RLuc: 5%

What do the screens show for `Cn1c(=O)c2c(nc(N3CCCC3)n2CC(=O)O)n(C)c1=O`?
2A firefly: -10%; StopGo RLuc: -8%
